From PubChem BioAssay
Sa growth inh: S. aureus growth inhibition at 42 and 30 °C, primary screen, LtaS inhibitor project, RN4220, two temperatures. 170,000 tested, 0.53% active. relative growth, % (no concentration beside the values). OD600, 20 h, 42 °C; active compounds read low;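 active = growth at 42 °C up to 50% and 20 or more points under that at 30 °C, or under 10% at both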;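 note: 300 nL library stock went into each well; scaled to the means of positive and negative controls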
GIV-Gai inh: inhibitors of GIV peptide binding to Galpha-i3, primary screen, biochemical, fluorescence polarization, FITC-GIV GBA peptide, rat Galphai3. Guanine nucleotide-binding protein G(i) subunit alpha-3 (Rattus norvegicus), P08753. 90 min; active compounds read low; scaled: aluminum fluoride 0%, vehicle 100%. percent of control (FP), % (concentration not given with the values). 210,000 tested, 0.42% active;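 active = replicate mean at 85% of control or lower, very high polarization wells dropped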;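 note: wells of about 15 µL received 100 nL stock; the first replicate is given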
Target sequence (P08753 whole entry, looked up): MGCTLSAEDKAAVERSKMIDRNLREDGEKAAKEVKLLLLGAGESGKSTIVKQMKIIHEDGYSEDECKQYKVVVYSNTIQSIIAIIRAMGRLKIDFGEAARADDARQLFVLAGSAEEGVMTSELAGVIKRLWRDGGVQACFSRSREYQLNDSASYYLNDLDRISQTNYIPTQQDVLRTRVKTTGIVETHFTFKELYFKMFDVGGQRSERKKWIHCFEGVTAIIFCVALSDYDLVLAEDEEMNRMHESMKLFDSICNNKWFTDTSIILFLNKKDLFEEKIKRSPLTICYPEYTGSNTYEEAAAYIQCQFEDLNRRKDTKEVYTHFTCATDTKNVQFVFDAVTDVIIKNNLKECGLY
HCMV UL50-53 inh: inhibitors of HCMV UL50-UL53 interaction, biochemical, HTRF. inhibition, % (concentration not given with the values). HCMV UL50-UL53 nuclear egress complex (human cytomegalovirus). normalized percent inhibition. 190,000 tested, 0.15% active. AID 1918969, 2023;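 active = both replicates at 50% or more, plus weaker picks with an unusually low signal ratio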;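 note: stock transfer was 100 nL into about 20 µL; 0% = negative control wells and 100% = wells with untagged competitor protein; inactives centre near -12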
Sa growth inh second temp: second read-out of Sa growth inh, no call of its own (marks repeat the call); relative growth, %; measured here: growth at 30 °C;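 optical density after 20 h as mean of two plates; 100% = untreated growth and lower means inhibition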
Numbers without * were called inactive; x = not tested or not shown.

mol	HCMV UL50-53 inh	Sa growth inh	Sa growth inh second temp	GIV-Gai inh
C(=N\N1CCOCC1)/c1ccccn1	-13.4	106.2	100.9	x
Cc1ccc2oc(-c3ccccc3)cc(=O)c2c1	-2.3	97.5	91.9	106.0
CCOC(=O)c1cc(CC)sc1NC(=O)CC#N	-22.1	87.7	79.1	113.2
Nc1nonc1OCc1ccc2c(c1)OCO2	-6.6	82.2	82.8	x
Cc1cc2c(cc3c(SCc4ccc(Cl)cc4)nnc(C)n32)o1	x	94.6	79.4	105.5
C/C(=N\O)c1ccc2c(c1)CCO2	-47.6	109.8	84.8	100.1
CC1=C(C#N)C(c2cc(F)ccc2F)C(C(=O)OCc2ccccc2)=C(N)O1 (configuration not stated)	0.8	88.1	86.0	x
COc1ccc(NC(=O)c2ccc(Cl)cc2)cc1CN1CCn2c(nc3ccccc32)C1	-25.0	x	x	91.5
OC(Cn1cnc2ccccc21)Cn1c2ccccc2c2ccccc21 (configuration not stated)	3.1	101.0	103.3	101.9
Cc1c2cnn(CC(=O)NCCCN3CCOCC3)c(=O)c2c(C)n1Cc1ccccc1F	-17.7	88.5	83.8	106.7
O=C(c1ccccc1N1C(=O)c2cccc3cccc(c23)C1=O)N1CCOCC1	-3.5	97.7	79.1	100.6
CC(=O)OCc1ccc(/C=C/C(=O)O)o1	-33.3	103.2	100.4	x
CCOc1cc(C=C2C(=O)NC(=O)NC2=O)cc(Cl)c1OS(=O)(=O)c1ccccc1	8.6	x	x	102.7
O=C(CCc1ccc(O)cc1)c1c(O)cc(O)cc1O[C@@H]1O[C@H](CO)[C@@H](O)[C@H](O)[C@H]1O	-31.8	96.2	100.9	106.8
COc1ccc(CNCc2ccc(C)cc2)cc1	x	83.9	97.5	110.4
CCc1ccc(NC(=O)CC2C(=O)N(c3ccc(C)cc3)C(=O)N2CCc2ccncc2)cc1 (configuration not stated)	10.9	91.2	48.1	101.8
CCOC(=O)c1cnn(-c2ccccc2)c1-c1ccncc1	-28.8	83.3	82.5	110.1
Brc1c(Oc2ccccc2)ncnc1Oc1ccccc1	2.6	149.9	112.1	99.0
C/C(=N\NC=O)c1ccccn1	23.6	96.3	95.2	x
COc1ccc(-c2cn3nc(N4CCCC(C(=O)NCc5ccccc5Cl)C4)sc3n2)cc1 (configuration not stated)	x	90.2	73.1	101.3
CCN1C(=O)Cc2cc(S(=O)(=O)N3CCOCC3)ccc21	13.6	83.2	95.2	103.5
COc1ccc(Cl)cc1NC(=O)CC(=O)Nc1ccc2nc3n(c(=O)c2c1)CCCCC3	1.3	112.6	84.2	102.0
COCCNC(=O)CSc1cn(CC(=O)N2CCCCCC2)c2ccccc12	x	98.0	91.4	104.9
COc1ccc(C2=C(O)C(=O)N(c3ccc(Cl)cc3)C2c2ccccc2F)cc1 (configuration not stated)	-44.5	x	x	99.2
COc1ccc(C(=O)Nc2ccc3nc(SCC(=O)N4CCOCC4)sc3c2)cc1	-29.1	97.6	95.1	104.8
O=C(/C=C/c1ccco1)N1CCN(S(=O)(=O)c2ccccc2)CC1	-43.3	101.3	81.5	x
CCC(=O)N1c2ccccc2CC1C(=O)NCCc1cc(OC)c(OC)c(OC)c1 (configuration not stated)	x	105.8	109.2	108.9
COc1cccc(CNC(=O)C2CCN(S(=O)(=O)c3c(C)noc3/C=C/c3cccs3)CC2)c1	-37.8	96.3	90.4	105.9
O=C(NCCc1ccccc1)c1sc2ncccc2c1-n1cccc1	x	91.8	85.9	102.1
CCc1nn2c(=O)cc(COC(=O)CNC(=O)COc3ccc(C)cc3)nc2s1	x	97.1	97.7	102.4

Random excerpt: 3 compounds from above, in no set order.
mol	HCMV UL50-53 inh	Sa growth inh	Sa growth inh second temp	GIV-Gai inh
C(=N\N1CCOCC1)/c1ccccn1	-13.4	106.2	100.9	x
Nc1nonc1OCc1ccc2c(c1)OCO2	-6.6	82.2	82.8	x
CC1=C(C#N)C(c2cc(F)ccc2F)C(C(=O)OCc2ccccc2)=C(N)O1 (configuration not stated)	0.8	88.1	86.0	x

Reformatted: entries from further up
COc1ccc(C2=C(O)C(=O)N(c3ccc(Cl)cc3)C2c2ccccc2F)cc1 (configuration not stated)
- HCMV UL50-53 inh = -44.5
- Sa growth inh = x
- Sa growth inh second temp = x
- GIV-Gai inh = 99.2

COc1ccc(C(=O)Nc2ccc3nc(SCC(=O)N4CCOCC4)sc3c2)cc1
- HCMV UL50-53 inh = -29.1
- Sa growth inh = 97.6
- Sa growth inh second temp = 95.1
- GIV-Gai inh = 104.8

O=C(/C=C/c1ccco1)N1CCN(S(=O)(=O)c2ccccc2)CC1
- HCMV UL50-53 inh = -43.3
- Sa growth inh = 101.3
- Sa growth inh second temp = 81.5
- GIV-Gai inh = x

(more compounds)
mol	HCMV UL50-53 inh	Sa growth inh	Sa growth inh second temp	GIV-Gai inh
CCN(CC)CCNC(=O)Cn1ncc2c3ccccc3n(Cc3ccc(Cl)cc3)c2c1=O	0.7	108.1	95.1	132.1
COc1ccc2c(C)nc(Nc3nc(-c4ccccc4)cc(=O)[nH]3)nc2c1	6.7	x	x	108.5
COc1cccc(NC(=O)Cn2c(=O)oc3cc(S(=O)(=O)N4CCCCC4)ccc32)c1	-3.5	91.2	92.5	106.0
CCOc1ccc2nc(NC(=O)c3cc(=O)c4ccc(C)cc4o3)sc2c1	-3.5	102.7	70.6	102.5
Cc1ccccc1Nc1c(-c2ccc(N3CCOCC3)cc2)nc2cccc(C)n12	-3.8	112.2	89.6	98.8
Cc1nnc(NC(=O)CSc2ncccn2)s1	-14.4	100.6	100.0	103.1
COc1ccc(N2CCC(CNC(=O)Nc3ccccc3)C2)cc1 (configuration not stated)	x	81.5	51.9	99.7
CC(=O)NC(C(=O)NNc1c(Cl)cc(Cl)cc1Cl)C(C)C (configuration not stated)	-5.8	100.0	86.2	x
Cc1ccc(SCc2cc(=O)n3[nH]cnc3n2)cc1	-8.2	80.5	88.0	100.1
COc1ccc(N(C)C(=O)C2CCN(S(=O)(=O)c3cccc4nsnc34)CC2)cc1	x	100.6	93.8	97.8
Cn1c(-c2ccccc2)c(C(=O)CC#N)c2ccccc21	-25.0	100.6	82.4	x
COC(=O)c1cc(S(=O)(=O)NCC2CCN(Cc3ccc(F)cc3)CC2)c[nH]1	x	96.1	97.6	105.8
CCOC(=O)C1CCN(C(=O)C2CCCCC2)CC1	0.0	103.7	96.2	93.4
CCN1CCCc2cc(CN(CCN3CCOCC3)C(=S)Nc3c(C)cc(C)cc3C)ccc21	x	116.3	76.1	109.4
CC(=O)Nc1c(C)sc(C)c1C(=O)O	-6.8	102.8	92.7	109.2
CSc1ccc(CCNC(=O)c2oc3cc4sc(N(C)C)nc4cc3c2C)cc1	x	96.2	75.6	99.7
Cc1occc1C(=O)N/N=C/C1CCCCC1	2.4	98.3	115.1	107.5
O=C(COc1ccccc1Cl)Nc1noc(-c2ccccc2)n1	5.6	x	x	99.6
CC(=O)N1CCN(c2cc(N3CCCC3)nc(C)n2)CC1	-34.3	x	x	107.0
Nc1ncnc2c1c1nc3ccccc3nc1n2Cc1ccccc1	-10.8	96.2	87.2	99.0
CCOC(=O)C1CCCN(Cc2nc(N)nc(Nc3ccc(Cl)cc3)n2)C1 (configuration not stated)	x	82.6	55.9	97.2
Nc1nc(-c2ccncc2)nc2c1cnn2-c1ccccc1	x	98.3	82.7	98.9
O=S(=O)(Nc1ccc(-c2ccc(N3CCOCC3)nn2)cc1)c1ccc(F)cc1	-57.5	x	x	100.3
CCOC(=O)c1cc2c(s1)-c1c(C)cccc1OC2	-3.4	99.2	89.6	98.9
CCOc1ccc(-c2cn3c(n2)sc2cc(C(=O)NCCc4ccc(OC)cc4OC)ccc23)cc1	-3.2	97.4	76.9	93.3
Cc1nn(CCC(=O)NC2CCCC2)c(=O)c2nn(-c3ccccc3)c(C)c12	-34.4	99.7	94.3	98.5
O=C(NCc1ccco1)c1cc(-c2ccc(Cl)cc2)oc1C(F)(F)F	-6.0	72.6	83.1	100.1
COc1ccc(S(=O)(=O)N2CCC(n3c(=O)[nH]c4ccccc43)CC2)cc1	x	100.1	93.3	96.8
CNC(=O)/C(C#N)=C/c1cn(CCOc2ccccc2)c2ccccc12	-41.3	117.0	79.5	103.4
COc1cccc(C(=O)CC2(O)C(=O)Nc3ccc(Cl)cc32)c1 (configuration not stated)	16.2	102.9	98.0	106.1
CCOc1ccc(C2C(C(=O)Nc3ccc(Br)cn3)=C(C)NC3=C2C(=O)CCC3)cc1 (configuration not stated)	-17.8	x	x	100.2
CC1=C(C(=O)OC2CC(C)CCC2C(C)C)C(c2ccc(Br)cc2)n2nnnc2N1 (configuration not stated)	x	97.9	75.2	104.2
CCOC(=O)C(Sc1nncn1-c1ccccc1C)c1ccccc1 (configuration not stated)	-9.7	96.8	92.5	x
CCc1ccc(Cn2c(=O)c3sccc3n3c(=S)[nH]nc23)cc1	-12.4	x	x	99.7
Cn1c2c(c(=O)n(C)c1=O)CN(CC1CC1)CN2	-25.8	104.2	91.7	95.2
CC(C)(C)OC(=O)N1CCC(CNC(=O)c2ccc(F)cc2)CC1	-17.1	104.4	83.1	101.6
Cc1ccc(-c2cc(-c3ccccc3)nc(SCC(=O)Nc3ncccn3)c2C#N)cc1	-5.1	x	x	104.7
CCOC(=O)C(C)n1nc(C)c2nn(-c3ccccc3)c(-n3cccc3)c2c1=O (configuration not stated)	-22.3	x	x	100.7
CN(C)S(=O)(=O)c1ccc2c(c1)N(CC(=O)Nc1cccc(C(F)(F)F)c1)C(=O)CS2	x	86.2	74.4	104.2
O=C(NC1C2CC3CC(C2)CC1C3)c1cccs1 (configuration not stated)	4.2	100.8	79.4	102.2
CC(=O)Nc1ccc(S(=O)(=O)NC2(C(F)(F)F)C(=O)Nc3c2c(=O)[nH]c(=O)n3-c2cccc(Cl)c2)cc1 (configuration not stated)	-8.8	90.2	92.8	100.7
CCCCn1[nH]c(-c2ccccc2)cc1=O	-15.5	90.9	84.0	x
C=C1OC(=O)OC1(C)CCc1ccccc1 (configuration not stated)	-7.4	110.4	76.9	95.1
CCC(=O)Nc1cccc(-c2nc3ccccc3[nH]2)c1C	-11.8	115.5	76.3	102.1
CCC(=O)N(c1nnc(SCC(=O)c2c(N)n(C)c(=O)[nH]c2=O)s1)C1CC1	-1.6	90.0	93.5	x
CCc1nnc(SCC(=O)Nc2cccc(C(F)(F)F)c2)c2cc3oc(C)cc3n12	x	95.9	87.9	106.9
CCC(=O)Nc1ccc2c(c1)ncn2-c1ccccc1	0.5	126.3	76.6	100.4
N#Cc1nc(-c2ccc(COc3ccc(Cl)cc3)o2)oc1N1CCCCC1	-15.7	104.5	76.8	99.9
Cc1nn(Cc2ccc(Cl)cc2)c(C)c1NC(=O)COCc1cc(-c2ccc3c(c2)OCO3)on1	5.9	x	x	94.7
Cc1ccc(NC(=O)c2ccc(=O)n(CCC(=O)N3CCN(c4ccccn4)CC3)n2)cc1C	-5.4	x	x	105.0
COc1cc(C(F)(F)F)c(C(=O)N(C)Cc2cc(Cl)cc(Cl)c2)cn1	0.1	102.6	104.1	109.3
CS(=O)(=O)c1ccc(Cl)c(NC(=O)CN2CCc3sccc3C2c2cccs2)c1 (configuration not stated)	-17.2	89.6	99.5	x
Cc1nnc(SCc2cc(=O)c3cc(F)ccc3[nH]2)n1C	x	87.5	89.0	109.1
C=C(C)CN(CC)c1nc(N)c2c(N)nc3c(c2c1C#N)CC(=O)N3C12CC3CC(CC(C3)C1)C2	1.9	91.6	97.2	x
Cc1ccc(NC(=O)C2(C)Cc3ccccc3C(=O)O2)c(C)c1 (configuration not stated)	-11.1	102.3	90.7	105.7
CN(C)c1cccc(N(C)C)c1CNC(=O)Nc1ccc(Cl)cc1	-8.5	102.5	97.5	105.5
